Source: PubChem
VDR inhibitor: vitamin D3 receptor (human) inhibition; P11473; Potency, µM, for the others: max response, negative = inhibition, most hits filed as inhibitors; VDR-SRC2-3 peptide fluorescence polarization, 2 h; 400,000 tested, 0.93% active; active = well fitted inhibition curve with a large enough effect; inconclusive = small, poorly fitted or top-dose-only effect, or another doubt; inactive = no such curve, though single readings can be large or run the other way; note: series mostly up to about 120 µM
Target sequence (P11473 whole entry, looked up): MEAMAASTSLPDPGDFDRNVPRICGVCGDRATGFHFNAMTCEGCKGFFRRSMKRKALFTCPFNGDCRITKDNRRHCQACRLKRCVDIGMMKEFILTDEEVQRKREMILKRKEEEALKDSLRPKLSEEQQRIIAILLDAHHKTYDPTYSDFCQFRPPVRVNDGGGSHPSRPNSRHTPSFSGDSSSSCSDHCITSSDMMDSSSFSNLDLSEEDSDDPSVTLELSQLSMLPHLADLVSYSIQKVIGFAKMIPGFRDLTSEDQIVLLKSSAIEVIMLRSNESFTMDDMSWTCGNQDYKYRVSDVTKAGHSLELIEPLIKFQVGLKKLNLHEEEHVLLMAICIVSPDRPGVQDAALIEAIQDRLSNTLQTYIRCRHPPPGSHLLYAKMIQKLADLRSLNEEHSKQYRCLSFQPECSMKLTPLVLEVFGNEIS
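Two reagent solutions held at 4 deg C in the dark were dispensed, compounds pinned at 23 nl, and the mixture incubated 2 h at room temperature. Read-out: fluorescence polarization of VDR–SRC2-3 peptide binding.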
Active calls of the source: *; ? = inconclusive; & = joins results of further samples; [ ] = another dose, or the depositor's remark. % is set by controls: 0 for no effect and ±100 for the full control effect; potency is the fitted concentration of half-maximal effect.

SMILES	VDR inhibitor
COc1cccc(NC2=NCCCS2)c1	-12%
CN(C)C(=O)Oc1cccc(OCc2n(C)c3ccccc3[n+]2C)c1	5%
CN1CCC(OC(=O)Cc2ccccc2)CC1	6%
CCOc1ccc(CN(CCc2ccc3c(c2)OCO3)Cc2ccc(CC)cc2)cc1	-19%
COC(=O)c1ccc(C(c2c(C)[nH][nH]c2=O)c2c(C)[nH][nH]c2=O)cc1	?
O=C(COc1ccc2ccc(=O)oc2c1)N1C[C@H]2C[C@@H](C1)c1cccc(=O)n1C2	-1%
CC(Cc1cnccn1)NCc1c(C(=O)N2CCCCCCC2)nc2ccc(Cl)cn12 (stereo not drawn)	-9%
CNC(=O)Oc1ccc(C(=O)N2c3ccccc3NC(=O)C2C)cc1 (stereo not drawn)	-3%
Cc1nn(Cc2ccccc2)c(Cl)c1C(=O)OCC(=O)Nc1cccc2ccccc12	2%
CN1C(=O)C(=Cc2ccc(Sc3ccccc3)o2)C(=O)N(C)C1=S	-15%
OC(c1ccccc1)(c1ccc(Cl)cc1)C1CN2CCC1CC2 (stereo not drawn)	-1%
C[C@@]12CC[C@H]3[C@@H](CC[C@@H]4C[C@H]5S[C@H]5C[C@]43C)[C@H]1CC[C@H]2O	?
COc1cc(OC)c(/C=C2/C(=O)Nc3ccccc32)c(OC)c1	35%[activator]
O=C(c1cc2cc(F)ccc2[nH]1)N1CCC2(CC1)OCCO2	-8%
CCOc1ccc(Cl)cc1CNCCc1ccc(F)cc1	10%
CC/C(CC(c1ccccc1)c1c(O)c2ccccc2oc1=O)=N\NC(N)=S (stereo not drawn)	-13%
CCC1(c2ccccc2)C(=O)N(C)C(=O)N(C)C1=O	-6%
O=C(NC1CC2CCCC(C1)N2)c1ccccc1 (stereo not drawn)	8%
O=c1c2ccccc2nc(/C=C/c2ccc(F)cc2)n1-c1ccccn1	-6%
CC[C@H](C)[C@H](NC(=O)[C@H](CCCN=C(N)N)NC(=O)[C@H](CCCN=C(N)N)NC(=O)[C@H](CC(C)C)NC(=O)[C@H](Cc1ccccc1)NC(=O)CNC(=O)CNC(=O)[C@@H](N)Cc1ccc(O)cc1)C(=O)N[C@@H](CCCN=C(N)N)C(=O)N1CCC[C@H]1C(=O)N[C@@H](CCCCN)C(=O)N[C@@H](CC(C)C)C(=O)N[C@@H](CCCCN)C(=O)O	3%&27%
Cc1ccc(Cn2cccc(C(=O)Nc3nc4ccc(C)cc4s3)c2=O)cc1	-1%
CCn1c(O)c(C=Nc2ccc(S(N)(=O)=O)cc2)c(=O)[nH]c1=S	17%
COc1ccc(C(=O)C23CN4CN(CN(C4)C2)C3)cc1	9%
Cc1ccc(N2C(=O)/C(=C/c3ccc(CN(CCC#N)S(C)(=O)=O)o3)C(=O)NC2=S)cc1	?

Compounds above containing a furan ring, fused or not:
SMILES	VDR inhibitor
CN1C(=O)C(=Cc2ccc(Sc3ccccc3)o2)C(=O)N(C)C1=S	-15%
Cc1ccc(N2C(=O)/C(=C/c3ccc(CN(CCC#N)S(C)(=O)=O)o3)C(=O)NC2=S)cc1	?

(more compounds)
SMILES	VDR inhibitor
Oc1ccc2c3c1O[C@H]1[C@@H](O)CC[C@]4(O)[C@H](C2)N(CC2CCC2)CC[C@@]314	-6%
C=CCN1C[C@H](C)N([C@H](c2ccc(C(=O)N(CC)CC)cc2)c2cccc(O)c2)C[C@H]1C	11%
CN1CCN2c3ccc(N)cc3CC3(C(=O)NC(=O)NC3=O)C2C1 (stereo not drawn)	-2%
COc1ccc(-c2nn(CCC#N)cc2C(=O)NCc2ccccc2)cc1OC	-10%
C[C@H]1CO1	-2%
NC(=O)CN1CC(O)CC1=O (stereo not drawn)	-2%&10%
O=C(CCN1CCCCC1)Nc1ccc(Cl)cc1C(=O)c1ccccc1	7%
COc1ccc(C(=O)O[C@H]2CC[C@@]3(C)C4CCC5[C@]6(O)C[C@H](O)[C@@]7(O)C(CN8C[C@@H](C)CC[C@H]8[C@@]7(C)O)[C@]6(O)C[C@@]53O[C@@]42O)cc1OC (stereo partly drawn)	3%&8%
O=C(Cc1ccccc1)Oc1ccccc1N1C(=O)CCC1=O	-20%
CC(C)CCN(N=O)[C@@H](Cc1ccccc1)CN(N=O)[C@@H](Cc1ccccc1)CN(C)N=O	?
COc1ccc(-n2c(O)c(C=Nc3c(C)n(C)n(-c4ccccc4)c3=O)c(=O)[nH]c2=O)cc1	-18%
COC(=O)C1=C(c2c(C)noc2C)C[C@@H]2CC[C@H]1N2C(=O)NCCNC(C)=O	5%
CN1CCN(C(=O)Cc2nc3ccccc3[nH]2)CC1	6%
Fc1ccc(CNCCc2ccc3c(c2)OCO3)cc1	-16%
O=[N+]([O-])c1ccc([As](=O)(O)O)cc1	7%
CC/C(=N\NC(=O)Nc1ccccc1)c1c(O)n(Cc2ccccc2)c(=O)[nH]c1=O	2%
CCOC(=O)c1ncc2[nH]c3ccc(OCc4ccccc4)cc3c2c1COC	-1%
O=C1NC(=O)C2(CCCC2)C(=O)N1	-2%
CC1(C)CC(CCNCc2ccc3c(c2)OCO3)(Cc2ccccc2)CCO1 (stereo not drawn)	-9%
Cc1cc(C)[n+](CCCC[n+]2c(C)cc(C)cc2C)c(C)c1	-6%
O=C(C1CC(=O)N(C2CCCCC2)C1)N1CCC2(CC1)OCCO2 (stereo not drawn)	14%
CCCCP(=O)(O)c1ccccc1	9%
COC(=O)/C=C/C(=O)N[C@@H]1CC[C@@]2(O)[C@H]3Cc4ccc(O)c5c4[C@@]2(CCN3CC2CC2)[C@H]1O5	1%
CCC(C)n1c(O)c(/C=N/Nc2ccccc2)c(=O)[nH]c1=S (stereo not drawn)	?
CC(C)c1ccc(N=Cc2c(O)n(C3CC3)c(=S)[nH]c2=O)cc1	14%
CCOC(=O)c1c(/N=C/C2C(=O)NC(=S)NC2=O)sc2c1CCC2	?
O=c1[nH]c(=O)n(Cc2ccc(F)cc2)c(O)c1C=NCCCn1ccnc1	1%
CCC(=NCc1cc(OC)cc(OC)c1)c1c(O)n(C)c(=O)n(C)c1=O	1%
CCN1CCOC(c2ccccc2)C1 (stereo not drawn)	5%
C=CCN1C(=O)NC(=O)/C(=C/c2cc3c4c(c2)CCCN4CCC3)C1=O	46%[activator]
CC(=O)Nc1cc(C(=O)N2CCC3(CC2)OCCO3)ccc1S(=O)(=O)c1ccc(Cl)cc1	3%
CCCCN1CCC(O)(c2ccccc2)C(C(=O)c2ccccc2)C1 (stereo not drawn)	?
O=C(c1cc(-c2cccnc2)nc2ccc(Cl)cc12)N1CCC2(CC1)OCCO2	-2%
CN1CCN(/N=C/c2c(O)n(Cc3ccc(F)cc3)c(=O)[nH]c2=O)CC1	0%
N#Cc1ccccc1Cn1cc(C(=O)c2ccccc2F)c2ccccc21	12%
C/C(=N\NC(=O)c1ccncc1)c1c(O)n(-c2ccccc2)c(=O)[nH]c1=O	-8%

4 entries from above, reformatted.
| compound | VDR inhibitor |
| --- | --- |
| O=C(Cc1ccccc1)Oc1ccccc1N1C(=O)CCC1=O | -20% |
| CC(C)CCN(N=O)[C@@H](Cc1ccccc1)CN(N=O)[C@@H](Cc1ccccc1)CN(C)N=O | ? |
| COc1ccc(-n2c(O)c(C=Nc3c(C)n(C)n(-c4ccccc4)c3=O)c(=O)[nH]c2=O)cc1 | -18% |
| COC(=O)C1=C(c2c(C)noc2C)C[C@@H]2CC[C@H]1N2C(=O)NCCNC(C)=O | 5% |

Two entries from above, field by field.
Structure: COc1ccc(C(=O)C23CN4CN(CN(C4)C2)C3)cc1
  VDR inhibitor: 9%

Structure: Cc1ccc(N2C(=O)/C(=C/c3ccc(CN(CCC#N)S(C)(=O)=O)o3)C(=O)NC2=S)cc1
  VDR inhibitor: ?

The results go on.
SMILES	VDR inhibitor
Cn1c(O)c(C(=NCCc2c[nH]c3ccccc23)c2ccccc2)c(=O)n(C)c1=O	-1%
CN1CCC(N(C)c2nc(-c3ccccc3)nc3ccccc23)CC1	5%
CC(C)n1cc(C(=O)N(CC(=O)NC2CCCC2)Cc2ccccc2)cn1	-11%
Cc1cnc[nH]1	-6%
c1ccc2oc(N3CCNCC3)nc2c1	-2%
O=C(Cc1ccccc1)OCn1nnc2ccccc2c1=O	-4%
CC12CCC(O)CC1CCC1C2CCC2(C)C(C3=CC(=O)OC3)CCC12O (stereo not drawn)	0%
COc1ccc(-c2[nH]ncc2CNC(C)Cc2cccc(C)n2)cc1F (stereo not drawn)	-9%
O=C(CN1CCCCC1)c1ccc2c(c1)OCO2	0%
C[N+](C)(C)CCc1ccc(O)cc1	-3%
C#C[C@@]1(O)CCC2C3CCC4=C/C(=N/OCC(=O)NC(C(=O)NC(CC(C)C)C(=O)O)C(C)C)CC[C@]4(C)C3CC[C@@]21C (stereo partly drawn)	-9%
OCC#CC[N+]1(CC#Cc2ccccc2)CCOCC1	-3%
CC(C)CN1CCCC2(CCN(C(=O)Oc3ccccc3)CC2)C1	-16%
CCCCn1c(=O)c(C(=O)Nc2ccccc2Cl)c(O)c2ccccc21	-3%
Fc1ccc(N2CCN(Cc3cc4c(cc3Br)OCO4)CC2)cc1	-3%
Nc1c(C(=O)NCCN2CCOCC2)c2nc3ccccc3nc2n1Cc1ccccc1	14%
CCOC(=O)c1c(C)n(Cc2ccccc2)c2ccc(OCC(O)CN3C(=O)CNC3=O)cc12 (stereo not drawn)	2%
COc1c(C)cc(C(=O)C2CCCN(C3CCOCC3)C2)cc1C (stereo not drawn)	10%
C=CCn1c(O)c(C(CC)=NCCCO)c(=O)[nH]c1=O	3%
C/C(CC(c1ccccc1)c1c(O)c2ccccc2oc1=O)=N\Nc1ccc([N+](=O)[O-])cc1[N+](=O)[O-] (stereo not drawn)	113%[activator]
O=C1N=c2ccccc2=C/C1=C\c1c(O)[nH]c(=S)[nH]c1=O	?
CN1CC[C@@]2(CCCN(C(=O)c3ccncc3)C2)C1	3%
O=c1c2ccccc2nc(CN2CCCCCC2)n1-c1ccc(F)cc1	?
Cc1cc(OCC(=O)NCC2CCC(C(=O)O)CC2)c2c3c(c(=O)oc2c1)CCC3 (stereo not drawn)	-13%
Cc1cccc2c3c(ccc12)C1=C(C(=O)C3=O)C(C)CO1 (stereo not drawn)	5.6µM*
CC(C)NC(C)C(=O)c1ccc2ccccc2c1 (stereo not drawn)	-3%
CCCCCCn1c(=O)c(C(=O)Nc2cccc(C)n2)c(O)c2ccccc21	-4%
CC([C@H](O)c1ccccc1)N(C)C (stereo partly drawn)	8%
CN1[C@@H]2CC[C@H]1CC(OC(c1ccc(F)cc1)c1ccc(F)cc1)C2 (stereo partly drawn)	-17%
COc1ccc(-n2c(/C=C3\C(=O)Nc4ccccc43)nc3ccccc3c2=O)cc1	17%
CC(=O)N1CCC2(CC1)CC(=O)c1cc(OCC(=O)N3CCN(C)CC3)ccc1O2	12%
CC(=O)N1CCCSC1=Nc1ccccc1	-29%
COc1ccc(CN2CCCC(C(=O)c3ccc(Cl)cc3)C2)c(O)c1 (stereo not drawn)	-1%
Cc1ccccc1N1CCN(C2CCCN(C(=O)COc3ccccc3)C2)CC1 (stereo not drawn)	-13%
N[C@@H](Cc1ccccc1)C(=O)N1C[C@H]2C[C@@H](C1)c1cccc(=O)n1C2	-7%
Cc1cccc2sc(NC(=O)c3cccn(Cc4ccccc4)c3=O)nc12	7%
Cc1ccc(N2C(=O)NC(=O)/C(=C\c3cc(C)n(-c4sc5c(c4C#N)CCCC5)c3C)C2=O)cc1	45µM*
COc1cccc(CN2CCNCC2)c1OC	5%
CCn1c(O)c(C(=O)CC2NCCc3ccccc32)c(=O)n(CC)c1=S (stereo not drawn)	-4%
O=C(NN=Cc1ccc(N(CCCl)CCCl)cc1Cl)c1cccnc1	-3%
Oc1ccc(CCN2CCCCC2)cc1	1%
O=[N+]([O-])c1ccc(Nc2ccccc2)cc1	-20%
Clc1ccc(-c2nc3ccc(Cl)cn3c2CN2CCOCC2)cc1	-10%
CC(C)C[C@H]1C(=O)N2CCC[C@@H]2[C@]2(O)O[C@](NC(=O)[C@@H]3C=C4c5cccc6[nH]c(Br)c(c56)C[C@H]4N(C)C3)(C(C)C)C(=O)N12	?
CCN[C@]1(c2cccs2)CCCCC1=O	4%
COc1ccccc1-n1c(-c2ccccc2Cl)nc2ccccc2c1=O	0%
CCC(C)(C)n1nnnc1C(c1cccs1)N1CC=C(c2ccc(F)cc2)CC1 (stereo not drawn)	-5%
ClCCNc1nc2ccc(Cl)cc2[nH]1	1%
C[C@@H]1CC[C@H]2[C@@H](C)C(=O)O[C@@H]3O[C@@]4(C)CC[C@@H]1[C@]32OO4	5%
O=[N+]([O-])c1ccc(-c2ccccc2)c([As](=O)(O)O)c1	-12%
N=c1c2c(n(Cc3ccc(Cl)cc3Cl)c3c1CCC3)CCCC2	9%
C=C1C2C[C@]3(C4CC5[C@@]6(C)CC[C@H](O)[C@@]5(C3CC2=O)C4[N+]([O-])(CC)C6)[C@@H]1O (stereo partly drawn)	3%
Cc1ccc(-n2c(=O)[nH]c3ccc(Br)cc3c2=O)cc1	0%
COC(=O)C1=C(c2ccccc2)C[C@@H]2CC[C@H]1N2C(=O)NCc1ccco1	-8%
O=C1NC(=O)C(C/C=C/c2ccccc2)C(=O)N1	?
C=CCN1C(=O)NC(=O)/C(=C/c2ccc(N(C)C)c(Br)c2)C1=O	79µM*

Random excerpt: 7 records from the list
SMILES	VDR inhibitor
C=CCn1c(O)c(C(CC)=NCCCO)c(=O)[nH]c1=O	3%
CC(C)C[C@H]1C(=O)N2CCC[C@@H]2[C@]2(O)O[C@](NC(=O)[C@@H]3C=C4c5cccc6[nH]c(Br)c(c56)C[C@H]4N(C)C3)(C(C)C)C(=O)N12	?
Cc1ccc(-n2c(=O)[nH]c3ccc(Br)cc3c2=O)cc1	0%
CCC(C)(C)n1nnnc1C(c1cccs1)N1CC=C(c2ccc(F)cc2)CC1 (stereo not drawn)	-5%
Oc1ccc2c3c1O[C@H]1[C@@H](O)CC[C@]4(O)[C@H](C2)N(CC2CCC2)CC[C@@]314	-6%
CN1CCC(N(C)c2nc(-c3ccccc3)nc3ccccc23)CC1	5%
CCOc1ccc(Cl)cc1CNCCc1ccc(F)cc1	10%

Some of the compounds tested; the hit share may differ from the screen's.
